# INS promoter inh = TRM-6 insulin promoter activity inhibition | 0.9% of 130,000 active | AID 1273 | TRM-6 cells (human fetal islet line), insulin promoter-eGFP reporter, imaging; reporter expression induced with tamoxifen | inhibition, % at 2 µM;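 active means inhibition above the mean plus 3 SD, with well images judged a real hit on visual review, cut at about 60% in these data, passing the limit was not always enough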
# PKD1 kinase inh = inhibitors of human PKD1 kinase; PKD1 kinase fluorescence polarization assay; inhibition, %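 (about 10 µM by stock and volumes)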; 0.056% of 200,000 active; AID 797;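 active means inhibition of 50% or more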;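 further: controls were vehicle for no effect and a reference inhibitor for full effect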
# HSV augment = increases HSV replication in cells. HSV replication augmentation in cells, fold increase. maximum fold increase. 0.005% of 220,000 active;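 active means peak rise of 1.5-fold or more in the series; tested in PC3 cells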;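 further: first round at 10 µM; read as green reporter fluorescence; hits show the peak of a series up to 25 µM; 1 = signal of infected wells without compound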
# RGS16-Gao HTS = modulates binding between human RGS16 and Galphao; binding response (% of control), % at 10 µM; O15492+P09471; bead-based flow cytometry RGS16-Galphao binding, fluorescence; actives lie on both sides; 0.38% of 220,000 active; AID 1441;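 active means below 25% or above 175%, edge rows of some plates excepted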;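 further: Galphao activated by GDP with aluminum fluoride before binding; 100% = wells without compound and 0% = beads without RGS; some results beyond the cut were filed as inactive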
# Target sequence (O15492 whole entry, looked up): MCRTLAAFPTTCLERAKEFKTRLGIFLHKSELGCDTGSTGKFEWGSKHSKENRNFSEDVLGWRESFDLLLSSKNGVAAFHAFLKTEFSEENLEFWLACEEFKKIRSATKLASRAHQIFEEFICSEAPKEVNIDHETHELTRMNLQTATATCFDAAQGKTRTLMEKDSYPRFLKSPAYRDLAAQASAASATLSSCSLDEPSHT
# Target sequence (P09471 whole entry, looked up): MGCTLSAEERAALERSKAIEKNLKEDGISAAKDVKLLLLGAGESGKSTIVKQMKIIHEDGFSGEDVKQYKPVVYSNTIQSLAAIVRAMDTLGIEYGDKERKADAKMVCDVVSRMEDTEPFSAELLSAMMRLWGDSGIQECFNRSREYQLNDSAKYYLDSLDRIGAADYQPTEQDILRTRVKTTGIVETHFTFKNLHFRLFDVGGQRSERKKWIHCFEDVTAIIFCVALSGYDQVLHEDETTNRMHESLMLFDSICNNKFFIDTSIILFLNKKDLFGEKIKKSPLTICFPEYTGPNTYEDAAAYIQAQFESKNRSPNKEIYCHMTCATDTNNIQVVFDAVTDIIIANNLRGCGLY
# GALR2 ag = GALR2 (human) receptor agonism | O43603 | GALR2-expressing cells, agonist activation read-out | activation, %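 (tested at 5 µM)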 | 0.48% of 140,000 active | AID 803;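 active means above mean plus 3 SD of all compounds, about 5% in these data, not always enough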;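 further: 0% = vehicle buffer wells and 100% = reference agonist at full effect; tested in CHO reporter cells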
# INS promoter inh cell count = second read-out of INS promoter inh, no call of its own (marks repeat the call); normalized cell count, %; measured here: cell count, toxicity; reference of the scale not given here;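 cells exposed to compound for 48 h; stained nuclei by imaging scaled within each plate; lower means fewer cells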
# HSV augment primary fold = second read-out of HSV augment, no call of its own (marks repeat the call); fold increase; compound at 10 µM; measured here: primary screen fold increase 10 uM; tested in PC3 cells;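 GFP signal in the first replicate; 1 = infected wells without compound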
# Starred values were filed as active, the others as inactive; i = inactive; / = no result given.
canonical_smiles	INS promoter inh	INS promoter inh cell count	PKD1 kinase inh	HSV augment	HSV augment primary fold	RGS16-Gao HTS	GALR2 ag
CCSc1nnc(CNc2ccc(C)cc2)n1C	21	126	-3	i	0.94	100	-0.6
Cc1nn(C(=O)c2cccc([N+](=O)[O-])c2)c(C)c1Sc1ccccc1	/	/	-9	i	1	105	-3.0
CCC/C(=N\NC(=O)c1csc(C)c1C)c1cccs1	-14	88	-12	i	0.78	98	-1.6
CCOC(=O)c1sc(NC(=O)c2noc3c2CCCC3)c(C(=O)OCC)c1C	/	/	-10	/	/	/	-2.9
Cc1cc(C)n2nc(SCC(=O)c3c(N)n(CC(C)C)c(=O)n(C)c3=O)nc2n1	/	/	1	i	0.92	99	/
CCN(CC)C(=O)CSc1nc2ccc(NC(=O)CSc3nnc(COc4ccccc4C)n3C)cc2s1	-3	106	-6	i	0.89	91	-0.8
COc1cccc(C(=O)N2CCN(C(=O)c3cccs3)CC2)c1OC	-34	141	5	i	1	110	-3.9
Cc1nc2ccc(NC(=O)N3CCOCC3)cc2nc1C	/	/	-3	i	0.97	125	/
Cc1cc(C=O)c(C)n1-c1ccc(N2CCOCC2)cc1	-44	126	-17	i	0.99	109	-1.3
CCN(CC)S(=O)(=O)c1ccc(Cl)c(C(=O)N2CCc3ccccc32)c1	-16	146	-7	i	1.1	100	-1.8
COc1ccccc1CNC(=O)C1CCN(Cc2nc(-c3cccc(Cl)c3)oc2C)CC1	/	/	-6	i	0.86	106	-1.6
O=C1c2ccccc2C(=O)N1c1cccnc1	-3	124	-3	i	1.1	112	-0.6
CCc1nc(N2CCN(Cc3ccc4c(c3)OCO4)CC2)c2oc3ccccc3c2n1	29	68	-2	i	0.54	104	-0.7
CCOC(=O)c1sc(NC(=O)Nc2ccc(Cl)cc2)nc1C	17	98	-3	i	0.88	111	-1.6
CCOc1ccccc1NC(=O)CCS(=O)(=O)c1ccc(OC)cc1	/	/	2	i	1.1	96	/
COc1ccc(N(CCC#N)S(=O)(=O)c2ccc(Cl)cc2)cc1	-47	123	-2	i	1.1	107	-0.7
CCN(C(=O)COC(=O)CNC(=O)c1ccc(C)s1)c1ccccc1	-13	81	-4	i	0.87	116	/
CCN(C(=O)c1cc2ccccc2oc1=O)c1cccc(C)c1	-10	92	-4	i	1.1	100	-1.1
COc1ccc(C2=NOC(C(=O)NC(C)C)C2)cc1 (centres undefined)	0	75	13	i	0.8	91	-0.2
CCOC(=O)C(=O)CC(=O)c1ccc2c(c1)OCCO2	29	99	1	i	1.2	101	/
CCC(NC(=O)Nc1nnc(C(F)(F)F)s1)(C(F)(F)F)C(F)(F)F	/	/	-6	i	0.65	95	4.3
O=C(COc1ccccc1)NC(=S)Nc1cccc([N+](=O)[O-])c1	20	119	-4	i	0.98	99	-0.1
Cc1cccc(C)c1NC(=O)COC(=O)c1cc(=O)c2ccccc2o1	/	/	/	i	0.97	103	/
CCC(C)NCCCCOc1cc(C)cc(C(C)C)c1 (centres undefined)	-14	161	-7	i	0.81	104	-0.6
Cn1c(/N=C/c2cc(Cl)ccc2O)nc2ccccc21	/	/	-4	i	1.1	100	-1.7

# Complete entries, looked up by structure. Values in the order: INS promoter inh, INS promoter inh cell count, PKD1 kinase inh, HSV augment, HSV augment primary fold, RGS16-Gao HTS, GALR2 ag
# Cc1cc(C=O)c(C)n1-c1ccc(N2CCOCC2)cc1 across the screens: -44, 126, -17, i, 0.99, 109, -1.3
# O=C1c2ccccc2C(=O)N1c1cccnc1 across the screens: -3, 124, -3, i, 1.1, 112, -0.6
# COc1ccccc1CNC(=O)C1CCN(Cc2nc(-c3cccc(Cl)c3)oc2C)CC1 across the screens: /, /, -6, i, 0.86, 106, -1.6
# Cc1cccc(C)c1NC(=O)COC(=O)c1cc(=O)c2ccccc2o1 across the screens: /, /, /, i, 0.97, 103, /
# COc1cccc(C(=O)N2CCN(C(=O)c3cccs3)CC2)c1OC across the screens: -34, 141, 5, i, 1, 110, -3.9

# Reformatted: entries from further up
> CCC(C)NCCCCOc1cc(C)cc(C(C)C)c1 (centres undefined)
  INS promoter inh: -14; INS promoter inh cell count: 161; PKD1 kinase inh: -7; HSV augment: i; HSV augment primary fold: 0.81; RGS16-Gao HTS: 104; GALR2 ag: -0.6
> CCc1nc(N2CCN(Cc3ccc4c(c3)OCO4)CC2)c2oc3ccccc3c2n1
  INS promoter inh: 29; INS promoter inh cell count: 68; PKD1 kinase inh: -2; HSV augment: i; HSV augment primary fold: 0.54; RGS16-Gao HTS: 104; GALR2 ag: -0.7
> CCN(CC)S(=O)(=O)c1ccc(Cl)c(C(=O)N2CCc3ccccc32)c1
  INS promoter inh: -16; INS promoter inh cell count: 146; PKD1 kinase inh: -7; HSV augment: i; HSV augment primary fold: 1.1; RGS16-Gao HTS: 100; GALR2 ag: -1.8
> CCOc1ccccc1NC(=O)CCS(=O)(=O)c1ccc(OC)cc1
  INS promoter inh: /; INS promoter inh cell count: /; PKD1 kinase inh: 2; HSV augment: i; HSV augment primary fold: 1.1; RGS16-Gao HTS: 96; GALR2 ag: /

# Further structures:
canonical_smiles	INS promoter inh	INS promoter inh cell count	PKD1 kinase inh	HSV augment	HSV augment primary fold	RGS16-Gao HTS	GALR2 ag
CCOC(=O)C1(Cc2ccccc2)CCCN(Cc2ccncc2)C1 (centres undefined)	/	/	-4	i	1.1	314	/
CCNC(=O)COC(=O)/C=C/c1cccc([N+](=O)[O-])c1	-25	107	-7	i	1.1	106	/
CC(=O)Oc1ccc(C)cc1N1C(=O)c2ccc(C(=O)O)cc2C1=O	-118	79	-5	i	1	110	-1.2
Cc1ccccc1NC(=O)/C=C/c1ccc([N+](=O)[O-])s1	/	/	8	/	/	103	0.7
O=C1CC(C(=O)Nc2ccc(F)cc2)S/C(=N\N=C\c2ccco2)N1 (centres undefined)	10	103	-2	i	0.97	96	-2.1
C=C(C)COc1ccc(-c2n[nH]c(C)c2-c2ccc(OC)cc2)c(O)c1	34	103	-4	i	0.84	105	0.3
O=C(CCNS(=O)(=O)c1cccc2nsnc12)NCc1cccs1	-21	24	2	i	0.93	112	-1.8
Cc1cc(C)nc(SCc2ccc(C(=O)NN=C3C4CC5CC(C4)CC3C5)cc2)n1	7	134	-14	i	0.93	93	0.3
O=C(COc1cccnc1[N+](=O)[O-])N1CCN(C(=O)c2ccco2)CC1	/	/	1	i	0.94	98	/
CCOC(=O)c1[nH]cnc1C(=O)NCc1ccccc1	/	/	/	i	1.3	104	/
CCOC(=O)CN1CC23C=CC(O2)C(C(=O)NC2CCCC2)C3C1=O (centres undefined)	-30	91	1	i	0.8	100	-3.7
COC(=O)CC1(C(=O)OC)Oc2ccc(Br)cc2C(=O)N1c1ccc(Br)cc1Cl (centres undefined)	/	/	/	i	0.84	106	/
CCOc1cc(-c2noc(N)c2C(=O)OC)cc(OCC)c1OCC	0	79	-1	/	/	99	-1.1
Cc1ccc(Cl)cc1N1CCN(C(=O)C2CCCN(S(=O)(=O)c3cnc[nH]3)C2)CC1 (centres undefined)	/	/	-4	i	0.87	102	0.0
O=C(Nc1ccc(Cl)cc1)N1CCC(c2nc(-c3ccccc3Cl)no2)CC1	-14	79	-10	i	0.93	103	-1.6
Cc1ccccc1-n1cc(-c2ccc(Br)cc2)nc1SCC(N)=O	/	/	/	i	0.77	106	/
CN(C(=O)COC(=O)c1ccccc1C(=O)N1CCN(c2ccccc2)CC1)c1ccccc1	/	/	0	i	0.86	99	/
O=c1[nH]c(CN2CCN(c3ccccn3)CC2)nc2c(Br)cc(Br)cc12	/	/	/	i	0.95	104	/
COc1ccc(NC(=S)N(CCN(C)C)C(C)c2ccco2)cc1Cl (centres undefined)	13	136	-11	i	0.79	121	-0.8
Cc1ccc2nc(C)cc(NCCO)c2c1	27	122	-10	i	1	105	-0.9
COc1cccc(C(C)NC(=O)Nc2cc(Cl)ccc2OC)c1 (centres undefined)	-16	123	2	i	1.1	97	/
CNC(=O)COc1ccccc1C(=O)Nc1ccc2c(c1)oc1ccccc12	0	135	0	i	0.79	105	-1.6
Cc1ccc(S(=O)(=O)C/N=C(/NC(=S)N(c2ccccc2)c2ccccc2)c2ccccc2)cc1	-22	126	-6	i	0.81	101	-1.1
COCCn1nnnc1CN1CCN2CCCC2C1 (centres undefined)	43	106	0	i	1.1	59	-1.2
COC(=O)c1c(C(=O)OC)c2n(c1C)CCC2	-17	109	-8	i	0.92	106	-1.1
COc1cc(C2CC(=O)C=C(O)C2)cc(OC)c1OC (centres undefined)	3	173	0	i	0.97	95	0.9
CN1CCN(c2ccc(-c3ccnn3C(=O)Nc3ccccc3)cc2)CC1	18	128	9	i	0.89	98	/
CCN1CCCC1CNc1ncnc2c1[nH]c1ccc(Cl)cc12 (centres undefined)	21	88	0	i	0.94	100	-0.3
CC1(C)OC(=O)N(Cc2ccco2)C1(C)O (centres undefined)	18	94	1	i	0.97	90	-0.2
COCCCNC(=O)c1ccc(Cn2c(=O)c3ccccc3n(CC(=O)NCc3ccco3)c2=O)cc1	/	/	-8	i	0.9	96	/
COC(=O)c1ccc(NS(=O)(=O)c2ccc(Cl)cc2)o1	62	85	3	i	1	96	/
O=C(COC(=O)Cc1ccc(Br)cc1)NC1CCCCC1	/	/	-4	i	1.1	101	/
O=C(COc1ccccc1)N(Cc1cc2ccccc2[nH]c1=O)CC1CCCO1 (centres undefined)	3	126	-12	i	0.97	105	-1.6
CC(=O)NC(NC(C)=O)c1cccc(OCc2ccccc2)c1	-8	146	1	i	1.1	90	-1.3
O=C(OCC#CCSc1nc2ccccc2o1)c1cc2ccccc2o1	56	139	-6	i	0.98	109	-2.2
CCC(C)[C@H](NC(=O)OC(C)(C)C)C(=O)N/N=C/c1ccc2nccnc2c1 (some centres undefined)	-460	24	5	i	1.1	106	-0.2
O=C(CCNC(=O)Cn1cnc2ccccc2c1=O)NCCC1=CCCCC1	26	124	-12	i	0.85	99	-1.0
O=C(O)c1ccc(COCC(F)(F)F)cc1	21	76	2	i	1.1	96	-1.5
CN(C)S(=O)(=O)c1cccc(NC(=S)N2CCc3ccccc32)c1	/	/	-1	i	1.1	98	/
CN(Cc1ccccc1NC(=O)c1ccc(S(=O)(=O)N(C)C)cc1)C1CCCCC1	-107	65	-1	i	0.93	100	/

# From PubChem BioAssay
